GALR2 ag – activates the human galanin receptor 2; GALR2-expressing cells, agonist activation read-out; actives 0.48% (n = 140,000); activation, %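 (tested at 5 µM)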;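 active = above mean plus 3 SD of all compounds, about 5% in these data, not always enough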;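 also: 0% = vehicle buffer wells and 100% = reference agonist at full effect; tested in CHO reporter cells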
HSV replic up – HSV replication enhancement; HSV replication augmentation in cells, fold increase; maximum fold increase; actives 0.005% (n = 220,000); AID 1956;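 active = peak rise of 1.5-fold or more in the series; tested in PC3 cells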;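 also: first round at 10 µM; read as green reporter fluorescence; hits show the peak of a series up to 25 µM; 1 = signal of infected wells without compound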
INS promoter inh – TRM-6 insulin promoter activity inhibition; actives 0.9% (n = 130,000); inhibition, % at 2 µM; TRM-6 cells (human fetal islet line), insulin promoter-eGFP reporter, imaging; reporter expression induced with tamoxifen;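 active = inhibition above the mean plus 3 SD, with well images judged a real hit on visual review, cut at about 60% in these data, passing the limit was not always enough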
RGS16-Gao – regulators of human RGS16-Galphao interaction. O15492+P09471. bead-based flow cytometry RGS16-Galphao binding, fluorescence; actives lie on both sides. binding response (% of control), % at 10 µM. actives 0.38% (n = 220,000). AID 1441;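 active = below 25% or above 175%, edge rows of some plates excepted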;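 also: Galphao activated by GDP with aluminum fluoride before binding; 100% = wells without compound and 0% = beads without RGS; some results beyond the cut were filed as inactive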
PKD1 kinase inh – blocks activity of human protein kinase D1; PKD1 kinase fluorescence polarization assay; inhibition, %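 (about 10 µM by stock and volumes)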; actives 0.056% (n = 200,000); AID 797;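 active = inhibition of 50% or more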;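 also: controls were vehicle for no effect and a reference inhibitor for full effect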
Target sequence (Q15139 whole entry, looked up): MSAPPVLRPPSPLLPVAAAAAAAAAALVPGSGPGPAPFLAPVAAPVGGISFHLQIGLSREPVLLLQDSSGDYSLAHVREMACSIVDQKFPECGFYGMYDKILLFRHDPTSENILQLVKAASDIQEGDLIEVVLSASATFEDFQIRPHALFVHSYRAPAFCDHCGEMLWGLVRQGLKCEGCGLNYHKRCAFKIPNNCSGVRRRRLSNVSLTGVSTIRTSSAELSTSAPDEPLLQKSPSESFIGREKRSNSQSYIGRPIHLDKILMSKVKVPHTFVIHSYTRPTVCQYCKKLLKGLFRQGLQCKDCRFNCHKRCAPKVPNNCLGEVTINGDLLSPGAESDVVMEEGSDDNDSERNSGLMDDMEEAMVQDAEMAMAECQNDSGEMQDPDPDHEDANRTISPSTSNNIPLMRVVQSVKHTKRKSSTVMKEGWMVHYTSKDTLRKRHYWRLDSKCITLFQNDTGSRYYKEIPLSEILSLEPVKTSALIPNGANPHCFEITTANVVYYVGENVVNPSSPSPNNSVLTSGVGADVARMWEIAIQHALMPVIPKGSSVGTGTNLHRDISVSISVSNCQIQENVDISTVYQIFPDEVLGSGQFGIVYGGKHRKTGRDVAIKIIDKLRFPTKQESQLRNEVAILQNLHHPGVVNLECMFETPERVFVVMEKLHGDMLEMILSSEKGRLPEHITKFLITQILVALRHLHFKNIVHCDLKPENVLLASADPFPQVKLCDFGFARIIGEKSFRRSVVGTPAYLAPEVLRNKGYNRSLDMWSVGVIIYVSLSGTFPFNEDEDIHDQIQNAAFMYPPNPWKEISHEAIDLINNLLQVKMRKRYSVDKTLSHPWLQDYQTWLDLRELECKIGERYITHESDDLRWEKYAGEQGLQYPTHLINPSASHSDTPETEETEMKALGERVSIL
INS promoter inh cell count – second read-out of INS promoter inh, no call of its own (marks repeat the call); normalized cell count, %; measured here: cell count, toxicity; reference of the scale not given here;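 cells exposed to compound for 48 h; stained nuclei by imaging scaled within each plate; lower means fewer cells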
HSV replic up primary fold – second read-out of HSV replic up, no call of its own (marks repeat the call); fold increase; compound at 10 µM; measured here: primary screen fold increase 10 uM; tested in PC3 cells;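 GFP signal in the first replicate; 1 = infected wells without compound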
Numbers without * were called inactive; i = inactive; . = not tested or not shown.

Start of the listing, in advance, 20 compounds:
SMILES	GALR2 ag	HSV replic up	HSV replic up primary fold	INS promoter inh	INS promoter inh cell count	RGS16-Gao	PKD1 kinase inh
O=C(NC(=S)Nc1ccccc1N1CCCC1)c1ccc([N+](=O)[O-])cc1	-2.0	i	1	37	108	96	-4
Cc1ccc(C(c2nnnn2CC2CCCO2)N2CCN(c3cccc(C)c3C)CC2)cc1 (configuration not stated)	-1.7	i	1	-45	118	102	-5
Cc1cccc(NS(=O)(=O)c2ccc(NC(=O)CN(c3cc([N+](=O)[O-])ccc3C)S(C)(=O)=O)cc2)c1	-0.8	i	0.8	24	34	37	10
O=C(Nc1ccc2c(c1)oc1ccccc12)c1cccnc1	-0.5	i	0.81	.	.	96	47
CC(C)c1[nH]nc2c1C(c1ccc(OC(=O)c3ccco3)cc1)C(C#N)=C(N)O2 (configuration not stated)	0.5	i	0.82	45	90	98	1
O=C(c1ccc2c(=O)n(C3CCCC3)c(=S)[nH]c2c1)N1CCc2ccccc21	-3.6	i	1.1	-29	185	103	-3
Cc1ccccc1OCc1nc2ccccc2c(=O)n1/N=C/c1cn[nH]c1-c1ccccc1	-0.1	i	0.73	-64	97	111	8
CC(=O)c1cnn(-c2cc(Oc3cccc(C)c3)ncn2)c1C	-0.9	i	0.92	0	138	93	-5
CCOC(=O)N1CCN(C(=O)CSc2ncccn2)CC1	-0.9	i	0.84	-186	61	104	4
Cc1ccc(C(=O)NCCNC(=O)CN2CCCC2)cc1	-2.2	i	1.1	.	.	111	-4
CCOC(=O)/C(=N\Nc1ccccc1)c1csc(Nc2ccc(C)cc2)n1	-1.4	i	0.76	73	148	103	4
COc1ccc2nc(SCC(N)=O)[nH]c2c1	-3.0	i	0.97	39	71	106	-1
CSc1ccc(/C=N/NC(=O)CNc2cccc3ccccc23)cc1	-1.0	i	0.98	.	.	102	2
CCn1cc(Br)c(C(=O)Nc2ccc(F)c(Cl)c2)n1	-0.9	i	1.1	.	.	157	2
CC(C)SC1=NC(C)(C)C=C(/C=C/c2c(Cl)cccc2Cl)N1	-0.7	i	0.66	-29	106	103	-5
CC(C)(C)c1ccc(S(=O)(=O)NC(Cc2ccccc2)C(=O)O)cc1 (configuration not stated)	-2.0	i	0.89	0	77	100	6
COc1ccc(-n2c(COc3ccc4c(c3)OCO4)nnc2SCC(=O)O)cc1	.	i	0.9	.	.	98	1
Cc1cc(C)cc(OCCCC(=O)O)c1	-0.6	i	1.1	.	.	106	-7
COc1cccc2c(=S)c(CCC(C)=O)c(C)[nH]c12	-1.3	i	1.1	.	.	98	2
COC(=O)c1ccccc1S(=O)(=O)N(CCCN1CCOCC1)Cc1cccs1	-1.1	i	0.86	40	97	177	-4

The list itself, from the first entry:
SMILES	GALR2 ag	HSV replic up	HSV replic up primary fold	INS promoter inh	INS promoter inh cell count	RGS16-Gao	PKD1 kinase inh
O=C(NC(=S)Nc1ccccc1N1CCCC1)c1ccc([N+](=O)[O-])cc1	-2.0	i	1	37	108	96	-4
Cc1ccc(C(c2nnnn2CC2CCCO2)N2CCN(c3cccc(C)c3C)CC2)cc1 (configuration not stated)	-1.7	i	1	-45	118	102	-5
Cc1cccc(NS(=O)(=O)c2ccc(NC(=O)CN(c3cc([N+](=O)[O-])ccc3C)S(C)(=O)=O)cc2)c1	-0.8	i	0.8	24	34	37	10
O=C(Nc1ccc2c(c1)oc1ccccc12)c1cccnc1	-0.5	i	0.81	.	.	96	47
CC(C)c1[nH]nc2c1C(c1ccc(OC(=O)c3ccco3)cc1)C(C#N)=C(N)O2 (configuration not stated)	0.5	i	0.82	45	90	98	1
O=C(c1ccc2c(=O)n(C3CCCC3)c(=S)[nH]c2c1)N1CCc2ccccc21	-3.6	i	1.1	-29	185	103	-3
Cc1ccccc1OCc1nc2ccccc2c(=O)n1/N=C/c1cn[nH]c1-c1ccccc1	-0.1	i	0.73	-64	97	111	8
CC(=O)c1cnn(-c2cc(Oc3cccc(C)c3)ncn2)c1C	-0.9	i	0.92	0	138	93	-5
CCOC(=O)N1CCN(C(=O)CSc2ncccn2)CC1	-0.9	i	0.84	-186	61	104	4
Cc1ccc(C(=O)NCCNC(=O)CN2CCCC2)cc1	-2.2	i	1.1	.	.	111	-4
CCOC(=O)/C(=N\Nc1ccccc1)c1csc(Nc2ccc(C)cc2)n1	-1.4	i	0.76	73	148	103	4
COc1ccc2nc(SCC(N)=O)[nH]c2c1	-3.0	i	0.97	39	71	106	-1
CSc1ccc(/C=N/NC(=O)CNc2cccc3ccccc23)cc1	-1.0	i	0.98	.	.	102	2
CCn1cc(Br)c(C(=O)Nc2ccc(F)c(Cl)c2)n1	-0.9	i	1.1	.	.	157	2
CC(C)SC1=NC(C)(C)C=C(/C=C/c2c(Cl)cccc2Cl)N1	-0.7	i	0.66	-29	106	103	-5
CC(C)(C)c1ccc(S(=O)(=O)NC(Cc2ccccc2)C(=O)O)cc1 (configuration not stated)	-2.0	i	0.89	0	77	100	6
COc1ccc(-n2c(COc3ccc4c(c3)OCO4)nnc2SCC(=O)O)cc1	.	i	0.9	.	.	98	1
Cc1cc(C)cc(OCCCC(=O)O)c1	-0.6	i	1.1	.	.	106	-7
COc1cccc2c(=S)c(CCC(C)=O)c(C)[nH]c12	-1.3	i	1.1	.	.	98	2
COC(=O)c1ccccc1S(=O)(=O)N(CCCN1CCOCC1)Cc1cccs1	-1.1	i	0.86	40	97	177	-4
Cc1sc2nc(COC(=O)c3ccc(O)cc3)[nH]c(=O)c2c1C	.	i	0.94	.	.	102	.
CC(C)C[C@@H](N)c1nnc(SCC(=O)c2ccc(Cl)cc2)o1	-0.8	i	0.87	i	63	106	2
CCCNC(=O)c1sc2c(c1C(=O)Nc1ccccn1)CCCC2	.	i	0.97	-145	61	109	-6
COc1ccc(N2C(=O)C(Cl)=C(Nc3ccccc3OC)C2=O)cc1	-1.5	i	1	-14	70	106	-11
COC(=O)CCC(=O)OC1(C)C(=O)C2=CN(CC(C)C)C(c3ccc(OC)cc3)=CC2=C(Br)C1=O (configuration not stated)	.	i	1	.	.	92	.
O=C1S/C(=C\c2ccccn2)C(=O)N1Cc1ccccc1F	-0.1	i	0.98	-17	117	99	-10
Cc1[nH]c2ccccc2c1C(c1ccncc1)N1CCN(c2ccccn2)CC1 (configuration not stated)	.	i	0.81	.	.	103	0
COC(=O)c1cc(Cl)c(NC(=O)/C=C/c2ccc(OC)c(OC)c2)cc1OC	-0.4	i	1.1	26	91	101	4
COc1ccc(-c2nc(O)c3cnccn23)cc1	0.5	i	0.95	0	63	24	-7
O=C(NC1CCCC1)C1CC(=O)N(CCc2ccccc2)C1 (configuration not stated)	-2.3	i	1	27	53	111	-28
O=C(Nc1ccc2c(c1)OCO2)Nc1ccc(Br)cn1	-0.7	i	0.88	-45	138	101	11
Cc1cccc(C(=O)N(c2ccccn2)C(C)c2ccco2)c1 (configuration not stated)	.	i	1.1	-8	79	101	-9
CN(c1ccc(C(=O)Nc2ccccn2)cc1)S(=O)(=O)c1ccccc1	.	i	0.99	.	.	99	-5
CCOc1cc(N2CCOCC2)c(OCC)cc1NC(=O)c1cccc(N(C)C)c1	.	i	0.94	12	185	103	-2
O=C(Nc1ccc(Cl)cc1)N(C1=NCCC1)c1ccc(OC(F)F)cc1	-0.6	i	0.95	26	34	102	0
C/C(=N\Nc1nc2ccccc2[nH]1)c1cc2ccccc2o1	-1.6	i	0.84	29	100	101	4
CC(c1ccccn1)N(CCN(C)C)C(=S)Nc1ccccc1F (configuration not stated)	5.4	i	1	19	112	108	-1
Cn1c(CN2CCOCC2)nnc1SCC(=O)NC1CCCCC1	0.0	i	0.92	-338	37	103	-5
Cc1cc(NC(=O)CSc2nnc(-c3c[nH]c4ccccc34)n2C)no1	.	i	0.89	.	.	109	-1
CC(NC(=O)c1cccs1)c1nnc(SCc2ccc(Cl)cc2Cl)n1C (configuration not stated)	-0.5	i	0.89	.	.	106	-6
COc1ccc(C2c3c(-c4ccccc4O)n[nH]c3C(=O)N2Cc2ccco2)cc1 (configuration not stated)	.	i	0.85	.	.	106	.
O=c1c2nnn(Cc3ccccc3)c2ncn1C/C=C/c1ccccc1	-2.0	i	0.87	.	.	101	12
CC(C)(C)c1ccc(OCCNC(=O)c2ncn[nH]2)cc1	-0.8	i	0.84	9	47	119	2
CC(C)Sc1ccc([N+](=O)[O-])cc1C(=O)Nc1ccncc1	.	i	0.87	.	.	106	.
COc1ccc(S(=O)(=O)N2CCN(C(=O)c3cccs3)CC2)cc1OC	.	i	0.95	.	.	44	.
O=C(NCc1ccccn1)c1ccc2c(c1)N(Cc1ccccc1)CCS2	.	i	0.85	.	.	82	.
Cn1c(=O)[nH]c(=O)c2c1nc(N1CCOCC1)n2CC(O)COc1ccc2ccccc2c1 (configuration not stated)	1.5	i	0.85	-24	161	100	-3
c1nnnn1C12CC3CC(CC(C3)C1)C2	-2.4	i	0.92	43	76	99	-3
COCCNC(=S)N/N=C(\C)c1ccccc1OC	-1.7	i	1	-93	104	30	0
CCCCn1c(=O)[nH]c(=O)c2c1nc(-c1ccc(CC)c([N+](=O)[O-])c1)n2C	.	i	0.64	-33	112	106	-5
CCOc1ccccc1NC(=O)Nc1cccc(C(C)=O)c1	0.4	i	0.94	21	66	98	-1
COCCOC(=O)c1c(N)n(CCCN2CCOCC2)c2nc3ccccc3nc12	.	i	1.2	.	.	107	.
Cc1cc(C)cc(NS(=O)(=O)c2ccc(NC(=O)C3CCCCC3C(=O)O)cc2)c1 (configuration not stated)	-1.4	i	1	24	98	102	-1
CSc1c(-c2ccccc2)nc2ccc(Cl)cc2c1C(=O)O	-0.4	i	0.92	.	.	88	-10
Cc1ccc(S(=O)(=O)c2nc(C)c3c(n2)CCC3)cc1	-2.4	i	0.9	0	97	16	-11
CN(C)c1ccc(C(=S)N2CCOCC2)cc1Br	-1.4	i	1	.	.	98	11
O=C(Nc1nc2ccccc2[nH]1)C1CC(=O)N(c2ccc3c(c2)OCCO3)C1 (configuration not stated)	-2.6	i	0.84	.	.	98	0
CCN1/C(=C2/OC(=S)N(C)C2=O)Sc2ccccc21	-0.5	i	1.2	-50	69	102	-3
Cc1ccnc2nc(C(=O)N3CCN(c4ccc(F)cc4)CC3)nn12	0.0	i	0.92	36	76	58	-6
O=C(/C=C/c1cccc([N+](=O)[O-])c1)OCC(=O)c1ccccc1	.	i	0.95	21	114	101	-2

Complete entries from above. Values in the order: GALR2 ag | HSV replic up | HSV replic up primary fold | INS promoter inh | INS promoter inh cell count | RGS16-Gao | PKD1 kinase inh
Entry for O=c1c2nnn(Cc3ccccc3)c2ncn1C/C=C/c1ccccc1 : -2.0 | i | 0.87 | . | . | 101 | 12
Entry for COCCNC(=S)N/N=C(\C)c1ccccc1OC : -1.7 | i | 1 | -93 | 104 | 30 | 0

Further records
SMILES	GALR2 ag	HSV replic up	HSV replic up primary fold	INS promoter inh	INS promoter inh cell count	RGS16-Gao	PKD1 kinase inh
O=C(NCc1ccc(-c2nc3ccccc3s2)cc1)c1ccc(Br)o1	-1.0	i	0.96	.	.	114	-5
Cn1cnc(S(=O)(=O)N2CCN(c3ccc(F)cc3)CC2)c1	.	i	1	.	.	99	.
COC(=O)c1c[nH]c(=O)c2ccccc12	.	i	0.9	-7	92	108	-3
Cc1snc2sc(C(=O)c3ccc(Br)cc3)c(N)c12	-1.6	i	0.92	-42	79	101	-5
COc1ccc(NC(=O)CN2CCN(CC(=O)Nc3ccccc3F)CC2)cc1OC	-0.2	i	0.87	68	72	106	-15
C/C(=N\NC(=O)C1CC1)c1cccs1	-0.4	i	1	-17	108	93	12
COc1ccc(CCN(Cc2cccs2)S(=O)(=O)c2ccc(-n3cnnn3)c(OC)c2)cc1OC	-3.0	i	1	-7	75	101	-5
COc1ccc2c(-c3ccccc3)cc(N3CCOCC3)nc2c1	-2.8	i	0.93	19	111	102	0
Cc1cc(C(=O)O)sc1C	-1.7	i	0.91	.	.	74	1
CCOC(=O)N1CCN(S(=O)(=O)c2ccc(OC)c(OC)c2)CC1	-0.3	i	0.93	-6	124	113	6
O=C(N/N=C/c1cc2ccccc2nc1Cl)[C@H]1C[C@@H]1c1ccccc1	-1.0	i	0.96	14	117	97	2

From PubChem BioAssay
